KCNQ2 pot = potentiators of rat KCNQ2 potassium channel; O88943; CHO-K1 KCNQ2, FluxOR thallium flux fluorescence; active compounds read high; B-score at 10 µM; hit rate 0.54% among 310,000;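 active = fluorescence ratio B-score at least 3 SD of library B-scores, with initial fluorescence B-score within 3 SD, cut at about 5.3 in these data; same plate scores as AID 2156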;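 note: B-score of peak minus minimum over baseline fluorescence ratio after K+ and Tl+ stimulus; positive B-score means potentiation of KCNQ2 with more thallium influx and brighter signal; only the inactives scoring about 0 or higher are listed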
Target sequence (O88943 whole entry, looked up): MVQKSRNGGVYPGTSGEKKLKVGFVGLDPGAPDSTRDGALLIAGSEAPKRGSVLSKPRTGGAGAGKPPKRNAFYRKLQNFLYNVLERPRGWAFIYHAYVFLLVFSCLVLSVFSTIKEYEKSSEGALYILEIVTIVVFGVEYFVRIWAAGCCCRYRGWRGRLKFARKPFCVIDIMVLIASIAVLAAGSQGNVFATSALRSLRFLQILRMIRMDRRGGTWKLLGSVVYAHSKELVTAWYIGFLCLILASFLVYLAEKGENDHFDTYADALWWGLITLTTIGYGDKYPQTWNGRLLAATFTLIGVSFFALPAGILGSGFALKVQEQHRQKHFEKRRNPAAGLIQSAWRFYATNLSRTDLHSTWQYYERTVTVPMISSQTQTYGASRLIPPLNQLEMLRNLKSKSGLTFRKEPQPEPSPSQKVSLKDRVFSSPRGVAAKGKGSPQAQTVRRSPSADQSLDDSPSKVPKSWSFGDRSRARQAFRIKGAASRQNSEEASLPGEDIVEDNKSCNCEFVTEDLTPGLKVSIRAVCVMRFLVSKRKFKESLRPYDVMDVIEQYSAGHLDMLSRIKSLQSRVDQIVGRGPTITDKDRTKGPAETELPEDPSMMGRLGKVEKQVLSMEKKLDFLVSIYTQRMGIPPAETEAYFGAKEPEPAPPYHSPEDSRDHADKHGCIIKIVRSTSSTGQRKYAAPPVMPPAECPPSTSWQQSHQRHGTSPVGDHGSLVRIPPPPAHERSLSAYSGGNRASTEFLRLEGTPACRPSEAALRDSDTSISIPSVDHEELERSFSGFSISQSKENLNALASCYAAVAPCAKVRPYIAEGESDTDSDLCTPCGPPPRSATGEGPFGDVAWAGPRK
KCNQ2 pot baseline = second read-out of KCNQ2 pot, no call of its own (marks repeat the call); B-score; compound at 10 µM; measured here: initial fluorescence intensity artifact check;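 brightness before thallium and not channel activity; 0 = typical well and far values either way flag optical interference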
An asterisk follows results filed as active.

SMILES	KCNQ2 pot	KCNQ2 pot baseline
Cc1ccc(CN2CC(C(=O)Nc3ccncc3)CC2=O)cc1 (configuration not stated)	1.1	2.1
C(=N\n1cnnc1)/c1cccc(Oc2ccccc2)c1	0.92	-2.9
CC1CC(C)CN(C(=O)CN2C(=O)NC(C)(C)C2=O)C1 (configuration not stated)	0.71	-0.1
COc1ccc(/C=C/C(=O)Oc2cccc(/C=N/NC(=O)c3cccc(F)c3)c2)cc1	1.2	-0.01
Cc1ccc(N(Cc2cc(=O)[nH]c3ccccc23)C(=O)CCl)c(C)c1	0.34	-0.28
COCCNC(=O)C1CC(=O)N(CCc2ccccc2)C1 (configuration not stated)	1.4	-1.2
COc1cc(C(=O)Nc2ccc(NC(=O)C(C)C)nc2)cc(OC)c1OC	1.8	-0.73
CC(C)(C)NCCCCOc1ccccc1F	0.01	-0.02
CCOC(=O)c1ccc(N/C=C/C(=O)c2ccccc2)cc1	0.69	-0.44
O=C(COc1ccccc1Br)N1CCN(C(=O)c2ccco2)CC1	0.47	0.19
O=C(CSc1ccccc1)Nc1cccc(S(=O)(=O)N2CCCC2)c1	0.93	0.57
CC(CCc1ccc(O)cc1)NCCc1ccc(O)c(O)c1 (configuration not stated)	0.9	1.1
O=c1oc(/C=C/c2ccccc2)nc2ccccc12	2.3	-0.2
Cc1nnc(NC(=O)C2(c3ccccc3)CCOCC2)s1	0.01	0.6
CCC(CO)NCCNC(CC)CO (configuration not stated)	0.67	0.04
CC(C)Cn1c(N)c(C(=O)COC(=O)c2c(F)cccc2F)c(=O)n(C)c1=O	0.33	-0.4
Cc1ccc(C2/C(=C(/O)c3ccc4c(c3)CC(C)O4)C(=O)C(=O)N2CCCn2ccnc2)cc1 (configuration not stated)	0.39	1.1
C/C(=N\NC(=O)c1nn(C)c(C)c1Br)c1cccc(NC(=O)c2ccc(F)cc2)c1	0.58	0.01
O=C1NC(=O)C2(CCCc3ccccc32)N1 (configuration not stated)	0.37	-2.2
O=C(COC(=O)C1=COCCO1)Nc1ncc(C(F)(F)F)cc1Cl	0.86	-1.2
CCC/C(=N\NC(=O)C1CC1)c1ccc(Br)cc1	0.37	-0.03
CC/C(CC(=O)C(F)(F)F)=N\NC(=O)/C(C#N)=C/N(C)C	0.81	0.61
CCOc1cccc2c1OC1(C)CC2NC(=O)N1c1cccc(C(=O)NCc2ccccn2)c1 (configuration not stated)	0.53	-0.81
Cc1ccc2c(c1)N(CC(=O)NC1CCCCC1C)C(=O)CO2 (configuration not stated)	1.2	0.91
c1cc2[nH]snc2c2nc(C3CC3)nc12	1.6	-0.74
CC(NC(=O)Cc1cccc(C(F)(F)F)c1)c1ccc(F)cc1 (configuration not stated)	0.62	0
Cc1ccc(-c2ocnc2C(=O)Nc2ccccc2C(=O)N2CCCC2)cc1	0.17	-0.32
COCCCNC(=O)c1c(NC(=O)c2cccs2)sc2c1CCCC2	0.14	1.7
COc1ccccc1N1CCN(CC(=O)NC(=O)NCc2ccco2)CC1	0.99	0.11
COC(=O)NC1(C(F)(F)F)NC(=O)N(C2CCCCC2)C1=O (configuration not stated)	0.23	-0.4
CCn1c(=O)c(=O)n(CC)c2cc(S(=O)(=O)Nc3cc(C)ccc3C)ccc21	0.73	2.2
CCCCn1cc([N+](=O)[O-])nc1C	0.03	-0.54
O=C(Nc1nnc(-c2ccncc2)s1)Nc1ccccc1F	0.44	0.39
COc1ccc(NC(=O)N(Cc2ccc3c(c2)OCO3)C2CC(=O)N(c3ccc(OC)cc3)C2=O)cc1 (configuration not stated)	0.82	-0.78
O=C(COc1ccc(C(F)(F)F)cc1[N+](=O)[O-])Nc1cccc(C(F)(F)F)c1	0.04	0.08
O=C(CNS(=O)(=O)c1cccs1)N1CCN(c2ccccc2F)CC1	0.41	-0.6
CC1CN(C(=S)Nc2cccc(Cl)c2Cl)CC(C)O1 (configuration not stated)	0.83	1.6
CC1CCN(c2ccc([N+](=O)[O-])cc2C(=O)O)CC1	0.88	-2.2
COc1ccc(S(=O)(=O)NC(C)C(=O)Nc2ccc3c(c2)OCO3)cc1OC (configuration not stated)	0.82	-0.92
NC(=O)COC(=O)CSc1ccc2ccccc2c1	2.1	-0.77

Quoted from the results shown (5 entries):
SMILES	KCNQ2 pot	KCNQ2 pot baseline
CCC/C(=N\NC(=O)C1CC1)c1ccc(Br)cc1	0.37	-0.03
CC/C(CC(=O)C(F)(F)F)=N\NC(=O)/C(C#N)=C/N(C)C	0.81	0.61
CCOc1cccc2c1OC1(C)CC2NC(=O)N1c1cccc(C(=O)NCc2ccccn2)c1 (configuration not stated)	0.53	-0.81
Cc1ccc2c(c1)N(CC(=O)NC1CCCCC1C)C(=O)CO2 (configuration not stated)	1.2	0.91
c1cc2[nH]snc2c2nc(C3CC3)nc12	1.6	-0.74

Next part.
SMILES	KCNQ2 pot	KCNQ2 pot baseline
CCC(=O)c1ccc(OCC(O)CN2CCCCC2)cc1 (configuration not stated)	0.94	1.4
O=C(CCl)Oc1ccc2occ(C(=O)c3cccs3)c2c1	0.19	-0.23
CCn1c(COc2ccccc2OC)nnc1SCC(=O)NC1CCCC1	0.14	1.6
CN(CCCNC(=O)CSc1cc(=O)n(C)c2cc(Cl)ccc12)Cc1ccccc1	0.4	-0.01
O=C(CSc1cccc[n+]1[O-])NC1CCCCCCC1	0.54	-0.29
CCN(CCO)Cc1cc(=O)oc2cc3c(cc12)CCC3	0.43	1.1
CCOc1cc(CNCc2ccccn2)ccc1OCC(=O)NC1CCCCC1	1.8	0.79
O=C(CSc1ccc(F)cc1)Nc1ccccc1Br	0.47	0.04
COc1cccc(NC(=O)C2CC(=O)N=C(N)S2)c1 (configuration not stated)	1.1	-0.12
CC(=O)N1CC(C)Oc2ccc(S(=O)(=O)NC(CC(=O)O)c3ccccc3C)cc21 (configuration not stated)	0.17	0.05
O=C(CSc1nc(C2CC2)nc2ccccc12)N1CCCCC1	0.94	-0.2
O=C(CCS(=O)(=O)Cc1ccccc1)NCc1ccco1	1.4	-1.5
CCOc1cc(C(=O)OCc2ccc([N+](=O)[O-])cc2)ccc1OCC(=O)N1CCOCC1	1.6	1.9
COc1ccc(C(CC(=O)N2CCCC2)c2ccc(F)cc2)cc1 (configuration not stated)	0.71	-0.25
COc1ccc(NC(=O)COC(C)=O)cc1Cl	0.41	0
CCOc1ccccc1N1C(=O)CN(Cc2ccc(OC)c(OC)c2)C1=S	1.6	-2
Cc1ccc(C(=O)/C=C/c2ccc(F)cc2)o1	0.05	0.5
COc1cc(C2NC(=S)NC(O)(C(F)(F)F)C2C(=O)c2cccs2)cc(OC)c1O (configuration not stated)	0.03	-0.3
CCc1ccc(Nc2cc(C)nc3nc(C)nn23)cc1	0.28	-0.81
Cc1ccc(SCCN)cc1C	1.6	-0.47

3 entries picked at random from the list so far:
SMILES	KCNQ2 pot	KCNQ2 pot baseline
O=C(CCS(=O)(=O)Cc1ccccc1)NCc1ccco1	1.4	-1.5
CCC(=O)c1ccc(OCC(O)CN2CCCCC2)cc1 (configuration not stated)	0.94	1.4
O=C(CSc1cccc[n+]1[O-])NC1CCCCCCC1	0.54	-0.29

Other records follow.
SMILES	KCNQ2 pot	KCNQ2 pot baseline
Fc1ccc(/C=N/NC(=S)Nc2ccc(Cl)cc2Cl)cc1	1.9	1.3
CC(C)(C)Nc1nc(SCC(=O)Nc2ccccc2)nc(N2CCOCC2)n1	4.4	-1.3
O=C1CC(c2ccccc2)Cc2nc3nc(C(F)(F)F)nn3cc21 (configuration not stated)	0.17	1.1
CCCOc1ccc(Cn2c(O)cc(=O)[nH]c2=O)cc1	0.66	-0.75
Cn1c(=O)oc2cc(S(=O)(=O)N3CCN(c4cccc(Cl)c4)CC3)ccc21	3.3	-0.86
O=S1(=O)N=C(N2CCc3ccccc3C2)c2ccccc21	0.58	0.06
Cc1ccc(S(=O)(=O)N(NC2=NS(=O)(=O)c3ccccc32)C(=O)c2ccccc2)cc1	0.18	0.33
Nc1c(C(=O)N/N=C/c2cccnc2)cnn1-c1ccccc1	1.2	0
COc1ccc(NS(=O)(=O)/C=C/c2ccccc2)cc1	0.1	-0.91
Cc1oc2c(c1C(=O)Nc1cccc(C(=O)O)c1)CCCC2	5.6*	0.87*
O=c1c2c3c(sc2nc2sc(C4CC4)nn12)CCCC3	0.78	-1.3
CC(C)Oc1ccc(CNC(=O)Cn2c(=O)oc3ccccc32)cc1	0.62	2.4
Cc1cc2[nH]c(=S)[nH]c2cc1C	1.3	-0.53
Cc1ccc2c(N)c(C(=O)c3ccccc3)sc2n1	1.6	0.2
O=C(COc1ccc(-n2cnnn2)cc1)N1CCN(c2ccc(F)cc2)CC1	2.2	-1.9
CCOC(=O)/C(=C\C=C\N1CCOCC1)C(C)=O	1.4	-0.23
CCCC(=O)Nc1nc(C(=O)OCC)cs1	0.89	-0.45
COc1ccccc1Nc1n[nH]c(=S)s1	0.58	-1.4
CCn1c(CNS(=O)(=O)c2ccc(Cl)cc2)n[nH]c1=S	0.11	-0.41
COCCCNC(=O)C1CC(=O)N(C2CCCC2)C1 (configuration not stated)	0.32	2.3

Next structures follow:
Compound	KCNQ2 pot	KCNQ2 pot baseline
COc1cccc(NC(=O)C2C3CC4OC(=O)C2C4C3)c1 (configuration not stated)	0.97	-0.33
CC(C)CCOCC(=O)Nc1cccc(C(=O)O)c1	0.24	-0.57
CN(C)S(=O)(=O)c1ccc(Cl)c(C(=O)Nc2cccc3ncccc23)c1	0.68	0.66
O=C(NCC(=O)N(c1ccc(Cl)cc1)C(C(=O)NC1CCCC1)c1ccncc1)c1ccco1 (configuration not stated)	0.37	-1.6
CS(=O)(=O)c1sc(C(=O)NC(=S)Nc2ccc(OC(F)(F)F)cc2)c2c1C=CCC2	14*	-0.46*
Cc1ccc(CS(=O)(=O)Cc2ccc(C(=O)NCc3ccco3)o2)cc1	0.78	0.09
CCOC(=O)N/N=C/c1ccc(OCCSc2ccc(Cl)cc2)c(OCC)c1	0.2	-1
Cc1ccc(S(=O)(=O)NC2=NCN(C)CN2)cc1[N+](=O)[O-]	0.6	0.23
CCc1nn(C(C)C(=O)N2CCN(c3ccccc3)CC2)c(=O)c2cc3occc3n12 (configuration not stated)	0.9	-1.8
O=C(CSc1ncn[nH]1)NCc1ccc2c(c1)OCO2	0.07	-0.02
Oc1cccc(C=NCc2ccccc2)c1	1.6	0.54
O=C(CSc1nc2ccccc2c(=O)n1-c1ccccc1)NC(=O)CN1CCCC1=O	0.44	0.95
CCCCc1cc(=O)oc2cc(OCC(=O)N3CCC(C(=O)O)(c4ccccc4)CC3)ccc12	0.14	-1.3
Cn1ccnc1C(=O)c1cc(=O)c2ccccc2o1	2.4	-1.1
CCc1ccc(CN2CCC(C(=O)Nc3cccc(-c4nnc(C)s4)c3)CC2)o1	0.89	-2
O=C(CSc1nnc(-c2ccccc2Cl)o1)Oc1ccc(Br)cc1	1.1	0.82
O=C(OCCN1CCCC1=O)c1cncc(Br)c1	1.2	0.03
COC(=O)C1=C(C)Nc2c(c(=O)n(C)c(=O)n2C)C1c1ccncc1 (configuration not stated)	0.3	0.45
O=C(O)CN1C(=O)/C(=C\c2cc(Br)ccc2OCc2ccccc2Cl)SC1=S	0.96	-0.23
O=C(C[n+]1ccccc1)NNc1ccccc1	0.08	-0.58
C=CCNC(=O)C(=O)NCC(c1ccc2c(c1)OCO2)N1CCN(c2ccc(F)cc2)CC1 (configuration not stated)	0.13	1.3
O=C1NC2(CCCCC2)C(=O)N1CCS(=O)(=O)Oc1ccc(Br)cc1	2.1	2
CCOC(=O)c1nn(-c2ccccc2C)c(=O)c(C#N)c1C	0.89	-2.3
Cn1nccc1NC(=O)NC(=O)c1c(Cl)cccc1Cl	0.55	1.8
COc1cc(/C=N/Nc2ccc(S(N)(=O)=O)cc2[N+](=O)[O-])cc(OC)c1O	1.7	0.02
N#CC(C#N)=c1ccc2c(c1)NC1(CCCCC1)N=2	1.2	-0.8
CC(C)(C)c1ccc(C(=O)NNC(=O)C(=O)N2CCCCC2)cc1	1.1	0.84
Cn1c2c(c3ccccc31)CCN=C2c1ccccc1	0.09	1.1
CCOc1cc(-c2cc(-c3ccc(NC(C)=O)cc3)nc(N)c2C#N)ccc1O	0.3	-0.87
O=C(NCc1cccnc1)c1ccc(N2CCOCC2)c([N+](=O)[O-])c1	0.03	0.28
NNC(=O)c1ccc(OCC2CC(c3ccc(Cl)cc3)=NO2)cc1 (configuration not stated)	0.26	0.26
COc1ccc2oc(C(=O)NCC3CCCO3)c(C)c2c1 (configuration not stated)	0.82	1.2
CN1C(=O)C(c2ccccc2[N+](=O)[O-])C(=O)c2ccccc21 (configuration not stated)	0.83	-0.48
Cc1cc(C)c(NC(=O)CSc2nnc(-c3ccccn3)n2N)c(Cl)c1	0.14	0.42
CCOC(=O)N1CCN(C(=O)c2cn(CC)c3ccc(S(=O)(=O)N4CCC(C)CC4)cc3c2=O)CC1	0.61	-1.3
CC(C)CN(C(=O)c1cccc(F)c1)c1c(N)n(CC(C)C)c(=O)[nH]c1=O	1.2	-1.1
O=C(O)c1cc([N+](=O)[O-])c(Sc2nc3ccccc3[nH]2)c([N+](=O)[O-])c1	0.56	-0.7
Cc1ccc(C(=O)OC2CCS(=O)(=O)c3sccc32)cc1 (configuration not stated)	1.1	-0.24
COc1ccc(-c2nc3c4ccccc4ccn3c2C=O)cc1	0.65	-0.13
COc1cc2ccc(=O)oc2cc1OCC(O)C(C)(C)O (configuration not stated)	0.09	0.06
O=S(=O)(c1ccc(F)cc1)N1CCC(n2cnc3ccccc32)CC1	0.98	0.08

A portion of the library. The share of hits here may be higher or lower than overall.
